Source: PubChem
PMP22 txn prim – modulates PMP22 transcription in S16 Schwann cells | hit rate 2% among 43,000 | Potency, µM (top dose mostly 57.5 µM), without a hit: top-dose activity change, negative = inhibition, actives largely listed as inhibitors | S16 Pmp22-F2sN Schwann cells (luciferase reporters placed in the Pmp22 gene), FLuc/NLuc coincidence luminescence, 24 h; active = clear falling dose curves in both reporters; inconclusive = both reporters move, but less clearly or upward; inactive = either reporter flat; the % is the NLuc reporter signal; further: on the % scale 0 is the no-effect control and ±100 the full control effect; some results filed as inactive show a strong effect at the top dose
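Schwann cells carrying the coincidence reporter were exposed to library compounds for 24 h at 37C, then lysed and read for FLuc and, after quenching, NLuc luminescence on a CCD imager.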
HTT prom inh – inhibits huntingtin promoter activity. HEK293 HTT promoter firefly luciferase reporter (activity 0% = vehicle and -100% = no light), 24 h. Potency, µM (highest dose often 57.5 µM), for the others: at the highest dose activity change, negative = inhibition, usual class: inhibitors. hit rate 0.93% among 48,000. AID 1508623; active means well fitted inhibition curve with a large enough effect; inconclusive means small, poorly fitted or top-dose-only effect; inactive means no such curve, though single readings can be large or run the other way; further: nearly all actives have a fitted effect of over 50% in size
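HEK293 Fluc reporter, 2,500 cells/well, 24 h pre-culture; cpds up to 57.5 uM final, 24 h 37 degrees C; Dual-Glo, 10 min RT; normalized vehicle = 0%, zero RLU = -100%.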
* hit, by the source's call; & = joins results of further samples; [ ] = remark or other dose. Potency means the concentration at half of the fitted maximal effect.

Sample of the layout, 4 compounds:
Screening CCOC(=O)c1noc2ncnc(N3CCN(c4ccccc4OC)CC3)c12 returned PMP22 txn prim 42% and HTT prom inh -21%.
For Cc1cccc(CN2C(=O)CC(c3ccc(Cl)cc3)c3c(C)nn(-c4nc(C)cc(C)n4)c32)c1 (centres undefined) the results were PMP22 txn prim 1% and HTT prom inh -30%.
`Fc1ccc(CNc2nc3c(-c4ccc(F)cc4)nnn3c3ccccc23)cc1` gave PMP22 txn prim -7% and HTT prom inh -9%.
Screening COc1ccc(-c2cc3nc(C)c(CCC(=O)N4CCN(c5ccccc5F)CC4)c(C)n3n2)c(OC)c1 returned PMP22 txn prim inconclusive and HTT prom inh -13%.

All compounds of this part, repeating the preview:
Screening CCOC(=O)c1noc2ncnc(N3CCN(c4ccccc4OC)CC3)c12 returned PMP22 txn prim 42% and HTT prom inh -21%.
For Cc1cccc(CN2C(=O)CC(c3ccc(Cl)cc3)c3c(C)nn(-c4nc(C)cc(C)n4)c32)c1 (centres undefined) the results were PMP22 txn prim 1% and HTT prom inh -30%.
`Fc1ccc(CNc2nc3c(-c4ccc(F)cc4)nnn3c3ccccc23)cc1` gave PMP22 txn prim -7% and HTT prom inh -9%.
Screening COc1ccc(-c2cc3nc(C)c(CCC(=O)N4CCN(c5ccccc5F)CC4)c(C)n3n2)c(OC)c1 returned PMP22 txn prim inconclusive and HTT prom inh -13%.
For CCCn1cnc2cc(NCc3ccc(OC)cc3OC)ccc21 the results were PMP22 txn prim inconclusive and HTT prom inh 2%.
Screening CCn1c2c(c(=O)n3ncc(C(=O)Nc4ccc(C(=O)OC)cc4)c13)CN(Cc1ccc(OC)cc1)CC2 returned PMP22 txn prim -13% and HTT prom inh 11%.
For CCOc1ccc(-n2c(=O)c3c4c(sc3n(CC(=O)NC(C)CC)c2=O)CCCC4)cc1 (centres undefined) the results were PMP22 txn prim -3% and HTT prom inh 6%.
`CCc1ccc2occ(CC(=O)Nc3c(C(=O)c4ccc(C)cc4)oc4ccccc34)c2c1` gave PMP22 txn prim -20% and HTT prom inh -8%.
For CCCCN(CC)CCCNC(=O)Cn1ncc2c([nH]c3ccc(C)cc32)c1=O the results were PMP22 txn prim inconclusive and HTT prom inh 7%.
CCOc1ccc(CCNC(=O)c2nn(-c3ccc(OC)c(Cl)c3)c(=O)c3c2c2ccccc2n3C)cc1OCC was read as PMP22 txn prim inconclusive and HTT prom inh -2%.
`CCOC(=O)c1cc(-c2ccccc2)n(CCC(=O)Nc2ccc(OC)c(Cl)c2)c1C` gave PMP22 txn prim inconclusive and HTT prom inh inconclusive.
Oc1ccc(NCc2ccc(OCc3ccccc3Cl)cc2)cc1 was read as PMP22 txn prim inconclusive and HTT prom inh 0%.
For COc1cccc(-c2nn(C)c3sc(C(=O)NCc4cc(OC)ccc4OC)cc23)c1 the results were PMP22 txn prim -21% and HTT prom inh -27%.
For COc1cc(NC(=O)CN2C(=O)COc3ccc(S(=O)(=O)N4CCCCC4)cc32)cc(OC)c1 the results were PMP22 txn prim -18% and HTT prom inh -16%.
`CCOc1ccc2nc(NC(=O)c3nc(SCc4ccccc4F)ncc3Cl)sc2c1` gave PMP22 txn prim -44% and HTT prom inh -9%.
CCc1ccc(NC(=O)CSc2nc3c(sc4ccccc43)c(=O)n2CCCOC(C)C)cc1 was read as PMP22 txn prim inconclusive and HTT prom inh -11%.
CCc1ccc(-c2nc(-c3cc4ccccc4oc3=O)sc2C)cc1 was read as PMP22 txn prim 8% and HTT prom inh -6%.
Screening Cc1cccc(N2CCN(c3nc4ccccc4c4nnc(C)n34)CC2)c1C returned PMP22 txn prim -13% and HTT prom inh inconclusive.
For COc1ccc2c(c1)c(CC(=O)Nc1c(C)cccc1C)c(C)n2C(=O)c1ccc(Cl)cc1 the results were PMP22 txn prim -7% and HTT prom inh -5%.
`COc1ccc(NC(=O)CSc2ncccc2C(=O)O)cc1OC` gave PMP22 txn prim 1% and HTT prom inh -4%.
CCOC(=O)c1ccc(NC(=O)C2=C(C)C(=O)OC23CCN(C(C)C)CC3)cc1 was read as PMP22 txn prim inconclusive and HTT prom inh -31%.
COc1cc(C(=O)N(Cc2ccc(F)cc2)Cc2ccco2)cc(OC)c1OC was read as PMP22 txn prim -21% and HTT prom inh -17%.
For Cc1ccc(C(=O)c2oc3ccccc3c2NC(=O)c2cc(=O)c3ccccc3o2)cc1 the results were PMP22 txn prim 2% and HTT prom inh -11%.
For COc1ccc(NC(=O)CSC2=Nc3ccccc3C3=NC(CC(=O)NCCc4ccccc4)C(=O)N23)cc1 (centres undefined) the results were PMP22 txn prim 5% and HTT prom inh 4%.
`CCOC(=O)c1cnc2ccc(OC)cc2c1NCCc1ccc(OC)c(OC)c1` gave PMP22 txn prim inconclusive and HTT prom inh inconclusive.
For CCn1c(SCC(=O)Nc2cc(Cl)ccc2OC)nc2c([nH]c3ccccc32)c1=O the results were PMP22 txn prim -24% and HTT prom inh 2%.
CCOC(=O)c1scc(-c2ccc(C)cc2)c1S(=O)(=O)Nc1cc(OC)ccc1OC was read as PMP22 txn prim -17% and HTT prom inh inconclusive.
For CNC(=O)C1CCC(Cn2c(=O)c3sccc3n(CC(=O)NCc3ccccc3)c2=O)CC1 (centres undefined) the results were PMP22 txn prim -10% and HTT prom inh -6%.
For CCOCCCn1c(SCC(=O)Nc2ccc(C(C)C)cc2)nc2c(sc3ccccc32)c1=O the results were PMP22 txn prim -29% and HTT prom inh -19%.
Screening Cc1cccc(Nc2ccccc2C(=O)O)c1C returned HTT prom inh 9%.
Cc1ccc(OCC(=O)Nc2ccc(-c3nc4ccc(C)cc4o3)cc2)cc1 was read as PMP22 txn prim 7% and HTT prom inh 68%[activator].
CN1CCN(C(=O)Cn2ncc3c4ccccc4n(Cc4ccc(Cl)cc4)c3c2=O)CC1 was read as PMP22 txn prim -4% and HTT prom inh -17%.
`CCOC(=O)c1c(NC(C)=O)c2c3c(sc2n1Cc1nc(-c2ccccc2OCC)oc1C)CCCC3` gave PMP22 txn prim -24% and HTT prom inh 4%.
`NC[C@H]1O[C@H](O[C@H]2[C@H](O)[C@@H](O[C@H]3O[C@H](CO)[C@@H](O)[C@H](N)[C@H]3O)[C@H](N)C[C@@H]2N)[C@H](N)[C@@H](O)[C@@H]1O` gave HTT prom inh 1%[25.2 µM].
Screening COc1ccc(Cn2ccnc2SCC(=O)Nc2cc(C(F)(F)F)ccc2Cl)cc1 returned PMP22 txn prim inconclusive and HTT prom inh -16%.
CCN(CC)c1ccc(NS(=O)(=O)c2ccc(-c3cnc(C4CC4)o3)cc2)c(C)c1 was read as PMP22 txn prim inconclusive and HTT prom inh inconclusive.
`COc1ccc(NC(=O)Cn2c(=O)n(CCCC(=O)NCCc3ccc(C)cc3)c(=O)c3ccccc32)cc1Cl` gave PMP22 txn prim inconclusive and HTT prom inh -4%.
`COC(=O)CCN(C(=O)c1c(C)oc2ncnc(N3CCOCC3)c12)c1ccccc1` gave PMP22 txn prim 2% and HTT prom inh inconclusive.
COc1ccc(-n2c(CC3C(=O)N(C)c4ccc(C)cc43)nc3ccccc3c2=O)cc1 (centres undefined) was read as PMP22 txn prim -10% and HTT prom inh -13%.
Cc1noc(C)c1S(=O)(=O)N(CC(=O)NCCc1ccc(Cl)cc1)c1ccc(C(C)C)cc1 was read as PMP22 txn prim -7% and HTT prom inh -2%.
CC(C)OC(=O)C(C(=O)OC(C)C)=C1SC=CS1 was read as HTT prom inh 8%&-10%.
`COc1ccc2c(c1)c1c(c(=O)n(Cc3ccccc3)c(=O)n1CC(=O)Nc1ccc(C)cc1C)n2C` gave PMP22 txn prim 2% and HTT prom inh -11%.
For CCCc1nnc(NC(=O)c2cc(=O)c3ccccc3o2)s1 the results were PMP22 txn prim -20% and HTT prom inh 47%[activator].
Screening COc1ccc(OC)c(-c2noc(N3CCN(c4ccc(Cl)cc4)CC3)n2)c1 returned PMP22 txn prim inconclusive and HTT prom inh -20%.
For CC(=O)OC[C@H]1O[C@@H](n2ncc(=O)[nH]c2=O)[C@H](OC(C)=O)[C@@H]1OC(C)=O the results were HTT prom inh -23%.
`CCOC(=O)C1=C(CN2CCN(c3ccccc3OC)CC2)NC(=O)NC1c1ccccc1` (centres undefined) gave PMP22 txn prim inconclusive and HTT prom inh inconclusive.
Cc1cc(F)ccc1NC(=O)C(C(C)C)N1Cc2ccccc2C1=O (centres undefined) was read as PMP22 txn prim 0% and HTT prom inh 30%.
For O=C(COc1ccc(Br)cc1)Nc1cccc2cccnc12 the results were PMP22 txn prim inconclusive and HTT prom inh -2%.

3 entries from above, sorted by formula weight, low to high.
For CCCc1nnc(NC(=O)c2cc(=O)c3ccccc3o2)s1 the results were PMP22 txn prim -20% and HTT prom inh 47%[activator].
COc1ccc(-n2c(CC3C(=O)N(C)c4ccc(C)cc43)nc3ccccc3c2=O)cc1 (centres undefined) was read as PMP22 txn prim -10% and HTT prom inh -13%.
`COc1ccc2c(c1)c1c(c(=O)n(Cc3ccccc3)c(=O)n1CC(=O)Nc1ccc(C)cc1C)n2C` gave PMP22 txn prim 2% and HTT prom inh -11%.

(further entries)
For COc1ccc(OCc2ccc(-c3nc(C#N)c(NCc4ccc(F)cc4)o3)o2)cc1 the results were PMP22 txn prim inconclusive and HTT prom inh inconclusive.
`COc1ccc(-c2noc(N3CCC(C(=O)N4CCN(c5cccc(OC)c5)CC4)CC3)n2)cc1` gave PMP22 txn prim inconclusive and HTT prom inh 2.2µM*.
`COc1ccc(S(=O)(=O)N2CCC(c3nnc(-c4ccccc4C)o3)CC2)c(OC)c1` gave PMP22 txn prim inconclusive and HTT prom inh inconclusive.
For Cc1cc(SCC(=O)Nc2ccc(F)cc2F)nc(=O)[nH]1 the results were PMP22 txn prim -20% and HTT prom inh -10%.
Screening N=C(N)N returned HTT prom inh -2%.
`COc1ccc(CNC(=O)CN2C(=O)COc3ccccc32)c(OC)c1` gave PMP22 txn prim 0% and HTT prom inh 14%.
For CCc1ccc(C2C(C(=O)Nc3ccccc3)=C(C)Nc3c(C(=O)Nc4ccc(C)cc4)cnn32)cc1 (centres undefined) the results were PMP22 txn prim 12% and HTT prom inh -24%.
For CCOc1ccc(N(C)C(=O)C2CCN(S(=O)(=O)c3c(C)noc3/C=C/c3ccc(C)cc3)CC2)cc1 the results were PMP22 txn prim -18% and HTT prom inh -15%.
COC(=O)c1ccccc1NC(=O)c1ccc2c(=O)n3c(nc2c1)CCCCC3 was read as PMP22 txn prim inconclusive and HTT prom inh 10%.
For Cc1cccc(C2CC(=O)Nc3cc4c(cc32)OCO4)c1 (centres undefined) the results were PMP22 txn prim inconclusive and HTT prom inh inconclusive.
`Cc1ccc(CN2c3ccccc3-c3nc(SCC(=O)NCc4ccccc4)ncc3S2(=O)=O)cc1` gave PMP22 txn prim 7% and HTT prom inh -24%.
For Cc1ccc(CSc2nc3ccc(NC(=O)COc4ccccc4)cc3s2)cc1 the results were PMP22 txn prim 15µM* and HTT prom inh 0%.
CCN(CC)CCn1c(=N)n(CCOc2ccccc2Cl)c2ccccc21 was read as PMP22 txn prim inconclusive and HTT prom inh inconclusive.
`COc1ccc(NC(=O)C(CC(C)C)NC(=O)C2CCCCC2)c(OC)c1` (centres undefined) gave PMP22 txn prim 11% and HTT prom inh -7%.
For O=C(Nc1nnc(S(=O)(=O)N2CCCc3ccccc32)s1)c1ccc(Cl)cc1 the results were PMP22 txn prim -11% and HTT prom inh inconclusive.
CC(CC(=O)NCc1ccc(Cl)cc1)CC1=NS(=O)(=O)c2ccccc2N1 (centres undefined) was read as PMP22 txn prim -6% and HTT prom inh inconclusive.
COc1ccc2c(c1)c(CC(=O)Nc1cc(C)cc(C)c1)c(C)n2C(=O)c1ccc(Cl)cc1 was read as PMP22 txn prim 0% and HTT prom inh 0%.
CCCCN1C(=O)c2[nH]nc(-c3ccccc3O)c2C1c1cc(Br)c(O)c(OC)c1 (centres undefined) was read as PMP22 txn prim inconclusive and HTT prom inh -15%.
Screening COc1ccc(CNC(=O)c2ccc3c(c2)nc2n3CCOC2)c(OC)c1 returned PMP22 txn prim -6% and HTT prom inh 7%.
`CCOC(=O)c1ccc(NC(=O)c2c(C)oc3nc(C)nc(N4CCCC4)c23)cc1` gave PMP22 txn prim 4% and HTT prom inh -3%.
Screening Cc1ccccc1NC(=O)c1sc2nc3n(c(=O)c2c1C)N=C(c1ccccc1)CS3 returned PMP22 txn prim -2% and HTT prom inh -10%.
For CC(C)c1ccc(N2C(=O)CS(=O)(=O)C23C(=O)N(Cc2cccc(F)c2)c2ccccc23)cc1 (centres undefined) the results were PMP22 txn prim inconclusive and HTT prom inh inconclusive.
For CN(CC(=O)Nc1ccccc1F)S(=O)(=O)c1ccc2c(c1)c(=O)n(C)c(=O)n2C the results were PMP22 txn prim -15% and HTT prom inh -3%.
CCN(CC)C(=O)c1c(-c2ccccc2)c(-c2ccccc2)nn(CC)c1=O was read as PMP22 txn prim -14% and HTT prom inh 0%.
Screening COc1ccc(OC)c(NC(=O)c2oc3c(c2C)-c2nn(Cc4ccc(Cl)cc4)cc2CC3)c1 returned PMP22 txn prim inconclusive and HTT prom inh -1%.
Screening CCc1cccc(NS(=O)(=O)c2c(C)[nH]c(=O)[nH]c2=O)c1 returned PMP22 txn prim 5% and HTT prom inh -11%.
Screening Cc1ccc(-n2nc(CO)c(C(=O)NCCCCc3ccccc3)n2)cc1C returned PMP22 txn prim -15% and HTT prom inh 5%.
